# Biofilm kill mix – mixture kills Candida albicans biofilm cells; C. albicans biofilm persisters + clotrimazole, fluorescence viability; primary screen in compound mixtures of four per well; inhibition, % at 7.6 µM; actives 0.02% (n = 120,000);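 active means inhibition above 30.3% in the primary screen of four-compound pools, then above 30% when the compound was retested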;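 further: compounds exposed to preformed 24 h biofilms for 48 h; the number belongs to the whole pool; some results filed as inactive read as strong as hits; inactives centre near 12; 0% = biofilm with clotrimazole alone and 100% = kill control; retested singly at about 60 µM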
#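 Assay system: C. albicans biofilms / Medium: RPMI/MOPS medium, pH 7.0 / Schedule: biofilm formation 24 h, compound exposure 48 h, 37 °C / Measured by: Alamar Blue fluorescence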
# Starred values were filed as active, the others as inactive. The list is partial; rates above refer to the full screens.
SMILES,Biofilm kill mix
CCOc1ccc(C(=O)NCC(c2cccs2)N(C)C)cc1OCC (stereo not given),6
COc1cc(C2C3=C(CCCC3=O)Nc3c2c(C)nn3-c2cccc(C)c2)cc(OC)c1O (stereo not given),10
CCn1cnc2c1c(=O)n(CC(=O)NCC(F)(F)F)c(=O)n2Cc1ccccc1,4
Cc1ccc2c(c1)C(=O)C(=O)N2CCOc1ccccc1,47
O=C(Oc1cc(=O)oc2ccccc12)c1cccnc1Cl,11
CCOc1ccccc1Nc1nnc(SCC(=O)NC(Cc2c[nH]c3ccccc23)C(=O)O)s1 (stereo not given),-6
COc1cc2c(cc1OC)C(c1cccs1)N(C(=O)c1ccc(S(=O)(=O)N(C)C)cc1)CC2 (stereo not given),9
NC(=O)CC(NC(=O)Cc1cccc2ccccc12)c1ccc(NC2CCCCCCC2)c([N+](=O)[O-])c1 (stereo not given),13
COc1ccc(C(=O)/C=C/c2cccs2)c(OC(=O)N2CCOCC2)c1,4
CCN(C(=O)COC(=O)c1cccnc1Nc1ccccc1F)C1CCS(=O)(=O)C1 (stereo not given),21
COC(=O)/C(C#N)=C/c1ccc(-c2ccc(S(N)(=O)=O)cc2)o1,7
CC1=CC(=C(C#N)c2nc3ccccc3s2)C=C(C)N1CC1CCCO1 (stereo not given),24
Cc1ccccc1C(=O)NC(=S)Nc1ccccc1C(=O)O,7
Cc1nn(CCCC(=O)N2CCN(c3ccc(F)cc3)CC2)c(C)c1[N+](=O)[O-],12
N#Cc1nc(-c2ccc(F)cc2)oc1NCc1ccco1,25
COc1ccc(OCCCC(=O)Nc2ncn[nH]2)cc1,15
COC/C=C/C1=CC2=CC(=O)C(C)(OC(=O)C3CCCC3)C(=O)C2=CO1 (stereo not given),7
Cc1ccc(-c2nc3ccccn3c2Nc2ccccc2)o1,17
Cc1ccc(N(Cc2cc3ccccc3[nH]c2=O)C(=O)c2cccs2)cc1C,31
CCOC(=O)c1cccc(P(=O)(C(C)(C)C)C(C)(C)C)c1,19
CCc1ccc(Nc2nnc(SCC(=O)NC(=O)c3cccn3C)s2)cc1,8
CC1CCCN1CC#CC(O)(c1ccccc1)c1ccccc1 (stereo not given),13
CS(=O)(=O)N(CC(=O)NCCSc1ccccn1)c1cccc2ccccc12,15
O=C(Nc1ccccc1)c1cccc(C(F)(F)F)c1,10
COc1ccc(CCn2ccc(O)c(Cc3c(F)cccc3Cl)c2=O)cc1OC,10
COc1cccc2c1OCC([C@@H]1C[C@H]3CN(Cc4cccc(Cl)c4)C(=O)[C@]34CCCN14)=C2,25
CSc1ccccc1NC(=O)CN1CCN(Cc2ccccc2)CC1,12
CCOC(=O)c1cnc2ccccc2c1Nc1ccc2c(c1)OCCO2,28
O=[N+]([O-])c1ccccc1N/N=C1\CC2CC=CC12 (stereo not given),17
COc1cccc(C(c2nnnn2CC2CCCO2)N2CCN(C(=O)c3ccco3)CC2)c1OC (stereo not given),19
COc1ccc(S(=O)(=O)CCC(=O)N2CCN(c3ccc(F)cc3)CC2)cc1,11
O=C(CN1C(=O)c2ccc([N+](=O)[O-])cc2C1=O)Nc1nccs1,14
COC(=O)c1cccc(NC(N)=S)c1,20
NNC(=S)NCc1ccccc1,10
O=C(c1ccccc1)N1CCN(c2ccc([N+](=O)[O-])c(N3CCOCC3)c2)CC1,12
CCNc1nc(NC(C)C)nc(N2CC(=O)N(CC(=O)OCC)C2=N)n1,11
Cc1c(C)c(C)c(CN2CCCC2)c(C)c1C,16
O=C(/C(N=Nc1cccc(C(F)(F)F)c1)=C(/O)c1cccs1)C(F)(F)F,24
COc1ccc(OC)c(-c2csc(NC(=O)c3ccc(OCC4CCCO4)cc3)n2)c1 (stereo not given),12
CC(=O)c1cnc(SCC(=O)O)nc1C,1
O=C(CCc1nc2ccccc2[nH]c1=O)OCC(=O)c1ccc(Cl)cc1,9
COc1ccc(C(=O)CSc2nnnn2C)c(OC)c1,0
CCN(CC)c1ccc(CNCc2cccs2)cc1,0
CC(c1ccon1)N(C)C(=O)CCc1nnc(Cc2ccc(-c3ccccc3)cc2)o1 (stereo not given),2
Cc1ccc(C(=O)CC2(O)C(=O)N(C)c3ccccc32)s1 (stereo not given),10
CSC1=NCCN1C(=O)Cc1ccc(-c2ccccc2)cc1,-1
CN(CCC1CCCCO1)C(=O)CCc1nnc(CCCCc2ccccc2)o1 (stereo not given),-2
Cc1ccc(N2C(=O)c3cccc4c(N)ccc(c34)C2=O)c2cccnc12,10
O=C(Nc1ccc2nccnc2c1)c1ccco1,17
CC(C)C(=O)Nc1cccc(C(=O)NCc2ccc3c(c2)OCO3)c1,17
CCN(CC)c1ccc(/C=C(\C#N)C(=O)NCc2ccccc2)cc1,6
O=C(CC(c1ccccc1)C1CCCCC1=O)c1ccco1 (stereo not given),13
CCCCC(CC)CNC(=O)Cn1c(=S)[nH]c2ncccc2c1=O (stereo not given),23
CCCCNC(=S)NNC(=O)c1c(Cl)c(C)nn1C,10
O=C(CSc1nc(-c2ccc(Cl)cc2)cs1)Nc1cccc([N+](=O)[O-])c1,14
Cc1ccc2oc(-c3ccccc3C(=O)O)cc(=O)c2c1,13
CC1=C(C(=O)OC(C)C)C2(O)C(=O)c3ccccc3C2(O)N1 (stereo not given),14
Cc1ccccc1C1CCCN(C(=O)c2cc(COc3c(F)cccc3F)on2)C1 (stereo not given),19
O=C(N/N=C/c1ccsc1)c1ccccn1,19
CC(NC(=S)Nc1ccccc1)C(c1cccs1)N1CCOCC1 (stereo not given),23

# Reprinted at random: 5 entries already listed.
SMILES,Biofilm kill mix
CC(C)C(=O)Nc1cccc(C(=O)NCc2ccc3c(c2)OCO3)c1,17
O=C(N/N=C/c1ccsc1)c1ccccn1,19
O=C(Nc1ccc2nccnc2c1)c1ccco1,17
CC(NC(=S)Nc1ccccc1)C(c1cccs1)N1CCOCC1 (stereo not given),23
CCCCNC(=S)NNC(=O)c1c(Cl)c(C)nn1C,10

# Later entries.
SMILES,Biofilm kill mix
COC(=O)C1=C(C)NC(=S)NC1c1ccc(OC(=O)c2ccco2)cc1 (stereo not given),22
O=C(NCC(c1cccs1)N1CCOCC1)c1ccc(Cl)c([N+](=O)[O-])c1 (stereo not given),16
CCOC(=O)CNc1c(-c2ccc(OC)cc2)nc2ccc(Cl)cn12,12
CC1CN(C(=O)Nc2ccc(F)cc2)C2(CCCCCC2)O1 (stereo not given),8
O=C(c1cccc(C(F)(F)F)c1)C1CCCN(C(=O)CCCn2cncn2)C1 (stereo not given),6
Cc1cc(C)n(CC(=O)N/N=C/c2ccc3c(c2)OCO3)n1,18
Cc1ccc(-c2[nH]c3ccccc3c2SCCNC(=O)c2ccc(S(=O)(=O)N3CCOCC3)cc2)cc1,8
CC1CCc2c(sc3nc(CSc4nnnn4C)[nH]c(=O)c23)C1 (stereo not given),33
CCOc1ccc(CCNC(=O)CN2C(=O)NC(CCSC)C2=O)cc1OCC (stereo not given),5
Cc1cccc(N2C(=O)C3CCC(c4ccccc4)CC3C2=O)c1 (stereo not given),12
CC(=O)N1N=C(c2ccccc2)CC1c1cn(Cc2ccccc2)c2ccccc12 (stereo not given),17
CCc1nnc(NS(=O)(=O)c2ccc(N/C=C\C(=O)c3cccc4ccccc34)cc2)s1,9
CCC(=O)NC(c1ccccc1OC)c1ccc2cccnc2c1O (stereo not given),7
CCC(=O)Nc1ccc(-c2ccc(NC(=O)CC)c(OC)c2)cc1OC,4
O=c1c2ccccc2nc(-c2ccccc2)n1Cc1ccccc1,17

# An excerpt from above in order of molar mass, rising:
SMILES,Biofilm kill mix
O=c1c2ccccc2nc(-c2ccccc2)n1Cc1ccccc1,17
CCC(=O)NC(c1ccccc1OC)c1ccc2cccnc2c1O (stereo not given),7
CC(=O)N1N=C(c2ccccc2)CC1c1cn(Cc2ccccc2)c2ccccc12 (stereo not given),17

# The list goes on.
SMILES,Biofilm kill mix
COc1cc(/C=C/C(=O)OCC(=O)N2CCN(S(=O)(=O)c3ccc(C)cc3C)CC2)ccc1O,8
Cc1oc(-c2ccccc2)nc1C(=O)O,20
CCOC(=O)C1CCN(Cc2cc(=O)n3c(-c4ccccc4)csc3n2)CC1,15
OC1CCCN(c2ncnc3c2nnn3Cc2c(F)cccc2Cl)C1 (stereo not given),20
O=C(COc1cccc2c1CCN(Cc1ccccc1F)C2=O)N1CCOCC1,6
COc1ccc(N2C(=O)CC(Sc3nnnn3-c3ccc(F)cc3)C2=O)cc1 (stereo not given),9
O=C(N1CCCCC1)C12CC3CC(CC(C3)C1)C2,11
O=C(Nc1ccc2[nH]c(=O)[nH]c2c1)c1c(F)c(F)c(F)c(F)c1F,-8
O=c1c2ccccc2cnn1Cc1n[nH]c(=S)n1-c1ccc(Cl)cc1,19
CCOC(=O)NC(=O)C(=CNNc1ncc(C(F)(F)F)cc1Cl)C(=O)NC(=O)OCC,12
O=c1c2ccccc2sn1-c1nccs1,9
COc1ccccc1C(=O)OCCNC(=O)Cn1cnc2c1c(=O)n(C)c(=O)n2C,19
COc1ccccc1NC(=S)N(Cc1ccccn1)Cc1ccccc1Cl,-2
C(=C\c1nc(N2CCCC2)c2ccccc2n1)/c1ccccc1,27
O=C(Nc1cccc(NC(=O)C2C3CC4OC(=O)C2C4C3)c1)c1ccccc1 (stereo not given),5
N#Cc1cccc(Cn2cc(C(F)(F)F)ccc2=O)c1,4
O=C(COC(=O)c1sc2ccccc2c1Cl)Nc1ncc(Cl)cc1Cl,-3
COc1ccc2cc(-c3cc(C(=O)OCC(=O)NC4CCS(=O)(=O)C4)c4ccccc4n3)ccc2c1 (stereo not given),17
Cn1c(N)c(C(=O)CSc2nc(N)cc(N)n2)c(=O)n(C)c1=O,11
O=C1c2cccnc2C(=O)N1CNc1ccc(Cl)cc1,12
Cc1cccc(N2CCN(C(=O)Cc3ccc(-n4c(=O)[nH]c5ccsc5c4=O)cc3)CC2)c1C,23
CC(NC(=O)c1ccc(F)cc1)C(c1cccs1)N1CCN(C)CC1 (stereo not given),18
Cc1ccc(C)c(C(=O)COC(=O)CCCC(=O)Nc2cc(C(F)(F)F)ccc2Cl)c1,11
C[C@@H]1CN(C2CCN(Cc3nc(CC4CC4)no3)CC2)C[C@H](C)O1,12
Cc1sc(NC(=O)C2CCCO2)c(C(N)=O)c1C (stereo not given),8
O=C(COC(=O)c1n[nH]c2ccccc12)Nc1ccc(Cl)cc1[N+](=O)[O-],6
Cc1c(NC(=O)CSCc2ccc(Br)cc2)c(=O)n(-c2ccccc2)n1C,17
CC(C)CC(NC(N)=O)C(=O)Nc1ccc(Cl)c(Cl)c1 (stereo not given),10
CC(=O)c1cnc2sccn2c1=O,4
Cc1ccc(-c2nnc(N3CCN(C(=O)COc4cccc(C)c4)CC3)c3ccccc23)cc1,19

# Molecules above containing a nitro group on carbon (eight):
SMILES,Biofilm kill mix
NC(=O)CC(NC(=O)Cc1cccc2ccccc12)c1ccc(NC2CCCCCCC2)c([N+](=O)[O-])c1 (stereo not given),13
Cc1nn(CCCC(=O)N2CCN(c3ccc(F)cc3)CC2)c(C)c1[N+](=O)[O-],12
O=[N+]([O-])c1ccccc1N/N=C1\CC2CC=CC12 (stereo not given),17
O=C(CN1C(=O)c2ccc([N+](=O)[O-])cc2C1=O)Nc1nccs1,14
O=C(c1ccccc1)N1CCN(c2ccc([N+](=O)[O-])c(N3CCOCC3)c2)CC1,12
O=C(CSc1nc(-c2ccc(Cl)cc2)cs1)Nc1cccc([N+](=O)[O-])c1,14
O=C(NCC(c1cccs1)N1CCOCC1)c1ccc(Cl)c([N+](=O)[O-])c1 (stereo not given),16
O=C(COC(=O)c1n[nH]c2ccccc12)Nc1ccc(Cl)cc1[N+](=O)[O-],6

# (more compounds)
SMILES,Biofilm kill mix
O=C(c1ccc2c(c1)OCO2)N1CCC2(CC1)Oc1ccc(F)cc1C(=O)C21CC(c2ccc(Cl)cc2)=NO1 (stereo not given),11
COCC(C)NC(=O)CCSc1nc(-c2ccc(OC)cc2)cc(C(F)(F)F)n1 (stereo not given),12
O=C1CCN(S(=O)(=O)c2ccc(Cl)cc2)CCN1,24
O=C1CCC([N+](=O)[O-])C(c2cccc3ccccc23)N1 (stereo not given),10
CCOC(=O)C(=CNc1ccc(NC2=NCC(C)(C)S2)cc1)C(=O)OCC,9
O=C1NC2(CCCCCC2)N=C1c1ccc(Br)cc1,-4
Cc1ccc(CNS(=O)(=O)c2c(C)n(C)c(=O)n(C)c2=O)cc1,16
Nc1nc(SCC(=O)NCCc2ccccc2)[nH]c(=O)c1-c1ccccc1,16
CC1=C(C(=O)N2CCCC(C(=O)c3cccc(C(F)(F)F)c3)C2)OCCO1 (stereo not given),8
CC(=O)c1nn(-c2ccccc2)cc1C(=O)c1ccc(Br)cc1,26
O=C1OCc2cc(-n3cccc3)ccc21,12
CC1(C)CN(c2ccc(N3CC(C)(C)C3=O)cc2)C1=O,4
O=C(CSc1nnc(Cc2ccccc2)o1)NCc1ccc2c(c1)OCO2,18
COc1ccc(S(=O)(=O)N(CCC#N)Cc2ccco2)cc1OC,14
Cc1ccc(Nc2nnc(SC3CCOC3=O)s2)c(C)c1 (stereo not given),19
Cc1cc2nc(-c3ccc(SCC(=O)Nc4nccs4)nc3)[nH]c2cc1C,-1
CCCCNC(=O)/C(C#N)=C/c1ccc2c(c1)OCCO2,13
CC(C)c1ccc2[nH]c(O)c(N=NC(=O)c3cccc(S(=O)(=O)Nc4ccccc4Cl)c3)c2c1,7
Cc1ccc(-n2nc(C)c(C(=O)O)n2)c(C)c1,19
NS(=O)(=O)c1ccc(-c2ccc(C=O)o2)cc1,1
CCOC(=O)C(CCCCP(=O)(c1ccccc1)c1ccccc1)(NC(C)=O)C(=O)OCC,16
Cc1cc(C)c2cc3c(N)c(C(=O)Nc4c(C)[nH]c(=O)[nH]c4=O)sc3nc2c1,-6
Oc1cccc(NC(=S)Nc2ccc(SC(F)F)cc2)c1,25
